Rango complex inh – Rango-importin beta binding inhibition | actives 0.031% (n = 340,000) | Potency, µM (titrated, usually from 92.2 µM), without a hit: top-dose inhibition of complex formation | Q14974 | Rango CFP/YFP FRET sensor + importin beta, 45 min | AID 540263; active = rising FRET ratio curve, often small or poorly fitted; inconclusive = mostly compound fluorescence or quenching in the first reads; inactive = flat curves in all reads;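 also: potency is read from the fitted curve at half-maximal effect; 0% = DMSO wells and 100% = buffer wells lacking importin beta; nearly all actives have a fitted effect of over 15% in size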
Target sequence (Q14974 whole entry, looked up): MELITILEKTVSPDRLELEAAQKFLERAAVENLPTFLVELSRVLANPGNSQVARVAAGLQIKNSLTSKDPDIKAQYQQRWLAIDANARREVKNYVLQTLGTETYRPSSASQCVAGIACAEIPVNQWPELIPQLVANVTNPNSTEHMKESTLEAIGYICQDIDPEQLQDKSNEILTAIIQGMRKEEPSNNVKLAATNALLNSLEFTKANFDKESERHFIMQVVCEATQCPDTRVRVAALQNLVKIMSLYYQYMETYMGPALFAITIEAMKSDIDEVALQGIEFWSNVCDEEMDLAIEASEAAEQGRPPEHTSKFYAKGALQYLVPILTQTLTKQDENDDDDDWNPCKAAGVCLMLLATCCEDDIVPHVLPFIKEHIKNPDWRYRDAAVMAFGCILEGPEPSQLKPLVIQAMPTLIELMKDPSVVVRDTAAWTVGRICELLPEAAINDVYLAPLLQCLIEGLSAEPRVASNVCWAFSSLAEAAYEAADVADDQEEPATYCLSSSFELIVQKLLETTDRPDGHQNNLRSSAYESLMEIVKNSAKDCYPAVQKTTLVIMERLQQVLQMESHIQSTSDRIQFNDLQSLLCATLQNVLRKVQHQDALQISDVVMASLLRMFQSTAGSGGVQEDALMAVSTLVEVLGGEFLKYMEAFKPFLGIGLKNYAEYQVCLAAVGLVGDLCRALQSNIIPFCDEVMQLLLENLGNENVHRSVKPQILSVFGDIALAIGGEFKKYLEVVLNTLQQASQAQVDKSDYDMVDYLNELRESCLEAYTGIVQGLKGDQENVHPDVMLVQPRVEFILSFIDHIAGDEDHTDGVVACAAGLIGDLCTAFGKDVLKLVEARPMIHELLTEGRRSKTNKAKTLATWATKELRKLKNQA
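Inhibition scored from the CFP 486 nm/YFP 530 nm FRET ratio 45 min after adding 0.125 microM importin beta to 50 nM Rango biosensor preincubated 5 min with compound (room temperature, PBS with DTT, Tween-20, BSA). No-importin wells as positive control.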
Rango dissoc inh – inhibitors of RanGTP-induced Rango-importin beta complex dissociation | O95149+P62826 | Biochemical FRET Rango-importin beta, RanGTP-induced dissociation | Potency, µM (top dose mostly 46.1 µM), for the others: at the highest dose activity change, negative = inhibition | actives 0.071% (n = 340,000) | AID 540253; active means falling FRET ratio curve, often poorly fitted, with flat reads before Ran was added; inconclusive means other falling curves, or compound fluorescence or quenching; inactive means flat or rising ratio curve;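 also: potency is read from the fitted curve at half-maximal effect; % of control where 0% means no effect; nearly all actives have a fitted effect of over 45% in size; -100% = wells without RanGTP and RCC1; the record marks most hits as doubtful in a second field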
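Quantitative HTS using a FRET biosensor: 0.1 uM Rango, 0.25 uM importin beta, 0.6 uM Ran, 2 mM GTP, 0.2 uM RCC1 final, PBS with DTT, Tween-20 and BSA. Post-read taken 45 min after Ran addition.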
GLA inh pH 4.5 – inhibitors of human alpha-galactosidase A at pH 4.5; P06280; purified enzyme, 4-MU-alpha-Gal fluorescence, pH 4.5; activity change, negative = inhibition, % at 105 µM; 230,000 tested, under 10 active; AID 1467; inconclusive = small, poorly fitted or top-dose-only inhibition, or a rising curve; inactive = flat fitted curve, though single readings scatter; no compound was filed as active;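 also: 0% = full activity with enzyme and -100% = basal without enzyme; dose as in the result columns while the protocol names 77 µM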
miR-21 reporter – raises the signal of a miR-21 reporter. 340,000 tested, under 10 active. Potency, µM (highest dose often 38.3 µM), inactives show top-dose reporter change, positive = more light. HeLa miR-21 FLuc reporter, luciferase, 48 h; active = well fitted rising curve with a large enough effect; inconclusive = small, poorly fitted or top-dose-only effect; inactive = no such curve, though single readings can be large or run the other way;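 also: % of control where 0% means no effect; miR-21 action dims this reporter so a rising signal means less miR-21 action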
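HeLa cells endogenously expressing miR-21, stably carrying CMV-driven firefly luciferase with a downstream miR-21 binding site, 2000 cells/well. Titrations up to approximately 40 uM, 48 hours; luciferase luminescence read.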
* marks the source's active call; other numbers are inactive results; ? = inconclusive; · = not tested or not shown. These rows are one share of the data. The share of hits here may be higher or lower than overall.

Rango complex inh	Rango dissoc inh	GLA inh pH 4.5	miR-21 reporter	molecule
1.2%	-10%	·	-15%	Cc1c(Cl)ccc2sc(NC(=O)C3CC3)nc12
-0.3%	-7%	·	-8%	O=C(Nc1sc2c(c1C(=O)NCCCO)CCCC2)c1ccccc1
2.9%	0%	·	19%	CC(=O)c1cccc(NC(=O)CCCN(C)S(=O)(=O)c2ccc(F)cc2)c1
0.2%	3%	-8	-28%	CC(C)CNC(=O)/C=C/c1cccs1
2.0%	-6%	·	·	Cc1nn(CC(=O)NC2(C)CCS(=O)(=O)C2)c(C)c1S(=O)(=O)N(C)C (stereo unspecified)
0.0%	2%	·	·	Cc1ccccc1Sc1ccc([N+](=O)[O-])cn1
0.4%	0%	3	3%	CC(C)c1ccc(/C=C/C(=O)Nc2nc3ccc([N+](=O)[O-])cc3s2)cc1
?	-5%	·	·	O=C(CN1CCN(c2ccc(O)cc2)CC1)Nc1ccc(S(=O)(=O)N2CCCC2)cc1
4.8%	5%	9	-5%	O=C(NN1CCOCC1)c1cc(-c2cccs2)nc2ccccc12
1.7%	16%	-2	-29%	CCOc1ccc(OCc2ccc(C(=O)OCc3ccccn3)o2)cc1
4.4%	3%	-6	-2%	COC(=O)c1nc(NC(=O)c2ccccc2)n[nH]1
0.0%	2%	2	-3%	Cc1ccc(CNC(=O)c2cccnc2Sc2cccc(Cl)c2)cc1
6.7%	-2%	-8	-1%	CCOc1ccccc1-c1cc(-c2ccc(OC)cc2)nc2c1c(=O)n(C)c(=O)n2C
4.2%	-9%	2	5%	CCCc1cc(=O)[nH]c(NCc2ccc(Cl)cc2)n1
-0.1%	-1%	-8	1%	CC(=O)Nc1ccc(NC(=O)C/C(C)=N/NC(N)=S)cc1
0.0%	9%	6	0%	O=C1C2CC=CCC2C(=O)N1Cc1ccccc1Cl (stereo unspecified)
?	13µM*	?	0%	CC(=O)Nc1nc2n(n1)C(c1ccc(Cl)cc1)C=C(C)N2 (stereo unspecified)
-5.2%	27%	-11	-5%	Cc1ccc(CCNC(=O)c2cc(C)nn2-c2ccccc2)cc1
-3.6%	0%	-5	2%	CC(=O)Nc1c(C)cc(S(C)(=O)=O)cc1C
?	?	-14	-2%	N#C/C(=C/c1cn(CC(=O)O)c2ccccc12)C(=O)NCc1ccccc1
5.4%	-10%	·	·	O=c1[nH]c(=O)c2cn[nH]c2[nH]1
-0.5%	21%	·	·	CCCCn1c(N)c(N(CCOC)C(=O)c2cc3c(s2)CCC3)c(=O)[nH]c1=O
5.1%	11%	·	0%	O=C(O)c1ccc(NC(=O)c2cccc(C(=O)Nc3ccc(C(=O)O)cc3)n2)cc1
?	-7%	-3	17%	CCN(CC)c1ccc(NC(=O)C2CCCN(S(=O)(=O)c3cccnc3)C2)c(C)c1 (stereo unspecified)

Copied from the list.
Rango dissoc inh with O=c1[nH]c(=O)c2cn[nH]c2[nH]1 → -10%
Rango complex inh with Cc1c(Cl)ccc2sc(NC(=O)C3CC3)nc12 → 1.2%
Rango dissoc inh with CCCCn1c(N)c(N(CCOC)C(=O)c2cc3c(s2)CCC3)c(=O)[nH]c1=O → 21%

2 compounds drawn at random from those above, as already listed:
Rango complex inh	Rango dissoc inh	GLA inh pH 4.5	miR-21 reporter	molecule
-5.2%	27%	-11	-5%	Cc1ccc(CCNC(=O)c2cc(C)nn2-c2ccccc2)cc1
5.1%	11%	·	0%	O=C(O)c1ccc(NC(=O)c2cccc(C(=O)Nc3ccc(C(=O)O)cc3)n2)cc1

Continuation:
Rango complex inh	Rango dissoc inh	GLA inh pH 4.5	miR-21 reporter	molecule
-1.5%	0%	·	-1%	COc1ccc(-n2nc(C(=O)O)cc2-c2ccccc2)cc1
-2.5%	0%	0	-7%	COc1ccccc1OCCNC(=O)c1cc(SC)ccc1Cl
0.0%	0%	-2	15%	Clc1ccc2c(c1)CNc1c(ncnc1N1CCOCC1)O2
-0.2%	4%	-11	6%	CCCCOC(=O)CSC1=C(C#N)C(c2ccc3c(c2)OCO3)CC(=O)N1 (stereo unspecified)
-6.9%	9%	-3	1%	Cc1cc2ccccc2c(=O)n1CC(=O)NCC(=O)N(C)Cc1ccccc1
?	-23%	·	1%	CC(=O)c1cccc(NC(=O)C(C)OC(=O)C2CCC2)c1 (stereo unspecified)
-2.6%	-1%	11	-2%	O=C(Nc1ccccc1Cl)N1C2CCC1CC(O)(c1cccnc1)C2 (stereo unspecified)
0.1%	-13%	·	·	CC(C)CN(C(=O)COC(=O)CCSc1ccc(F)cc1)c1c(N)n(Cc2ccccc2)c(=O)[nH]c1=O
3.9%	9%	-6	2%	CCOc1ccc(S(=O)(=O)N(C)c2ccc(OCC(=O)OCc3c(C)noc3C)cc2)cc1
0.8%	22%	·	-4%	O=C(Nc1cccc(Cl)c1)c1ccc(NC2=NC3CS(=O)(=O)CC3S2)cc1 (stereo unspecified)
-1.0%	3%	·	-1%	O=C(Nc1c(C(=O)N2CCOCC2)cnn1-c1ccccc1)c1ccc([N+](=O)[O-])cc1
1.1%	13%	·	·	O=C(COC(=O)c1nc(Cl)ccc1Cl)c1ccccc1Cl

The closing 6 records of the section above come first, to join the parts.
Rango complex inh	Rango dissoc inh	GLA inh pH 4.5	miR-21 reporter	molecule
-2.6%	-1%	11	-2%	O=C(Nc1ccccc1Cl)N1C2CCC1CC(O)(c1cccnc1)C2 (stereo unspecified)
0.1%	-13%	·	·	CC(C)CN(C(=O)COC(=O)CCSc1ccc(F)cc1)c1c(N)n(Cc2ccccc2)c(=O)[nH]c1=O
3.9%	9%	-6	2%	CCOc1ccc(S(=O)(=O)N(C)c2ccc(OCC(=O)OCc3c(C)noc3C)cc2)cc1
0.8%	22%	·	-4%	O=C(Nc1cccc(Cl)c1)c1ccc(NC2=NC3CS(=O)(=O)CC3S2)cc1 (stereo unspecified)
-1.0%	3%	·	-1%	O=C(Nc1c(C(=O)N2CCOCC2)cnn1-c1ccccc1)c1ccc([N+](=O)[O-])cc1
1.1%	13%	·	·	O=C(COC(=O)c1nc(Cl)ccc1Cl)c1ccccc1Cl
-3.6%	-1%	·	-11%	COc1cc(SC)ccc1C(=O)N1CCCc2ccccc21
-0.8%	47%	·	-4%	COc1ccccc1C(=O)Nc1nnc(S(=O)(=O)N(C)Cc2ccccc2)s1
?	?	5	14%	COC(=O)Cn1c(=NC(=O)c2cc(-c3cccs3)nc3ccccc23)sc2cc(S(N)(=O)=O)ccc21
2.3%	-14%	-2	-2%	CCOC(=O)/C(C#N)=C/c1ccc(OCC(=O)Nc2cc(C)ccc2C)c(OC)c1
6.4%	-9%	·	·	COc1ccc(C(=O)OCC(=O)N2CC(=O)Nc3ccccc32)cc1Br
0.5%	1%	8	-6%	CN(C)CCOc1ccc2ccccc2c1
-1.2%	11%	16	1%	COc1nc2c(c(-c3cc(Br)cs3)c1C#N)Cc1ccccc1-2
1.8%	-10%	·	3%	CC(c1ccccc1)C1CC(=O)N(c2ccccc2)C1=O (stereo unspecified)
2.9%	-18%	-4	-2%	CCOC(=O)C1=C(C)NC2=C(C(=O)CC(C)(C)C2)C1c1ccc(O)c(OCC)c1 (stereo unspecified)
0.8%	-17%	2	-4%	N#Cc1nc(-c2ccc(OCc3ccccc3)cc2)oc1NCc1ccco1
4.2%	14%	2	-3%	O=C(Cn1nc(C(=O)O)c2ccccc2c1=O)NC12CC3CC(CC(C3)C1)C2
6.6%	-11%	0	18%	COc1ccc2c(c1)C(C)=CC(C)(C)N2C(=O)CNCc1ccc2c(c1)OCO2
3.7%	-13%	·	2%	CCn1nc(NS(=O)(=O)c2ccc([N+](=O)[O-])cc2)c2cc3cccc(C)c3nc21
-1.6%	3%	10	0%	COCc1[nH]nc2c1C(c1ccccc1Cl)C(C#N)=C(N)O2 (stereo unspecified)
?	?	-12	-25%	COc1ccccc1CNC(=O)Nc1cccs1
2.8%	3%	-2	6%	Cc1ccc2c(c1)Oc1ccc([N+](=O)[O-])cc1C(=O)N2
7.4%	-4%	-4	-2%	CCOc1ccccc1OCC(O)CNC (stereo unspecified)
0.3%	2%	-1	-4%	CC(C)(C)OC(=O)N1CCC[C@H]1C(=O)NCC1CCC(C(=O)O)CC1 (stereo partly specified)
-2.8%	15%	-2	4%	NS(=O)(=O)c1ccc(CCNCC(=O)NC2CC2)cc1
4.2%	1%	-1	-4%	COc1ccc(C)cc1C(=O)CCC(=O)NC1CCCCC1
0.7%	13%	3	-2%	O=S(=O)(c1cccs1)n1nnc2ccccc21
-8.7%	13%	7	-38%	COCCN(C(=O)C(C)C)c1nnc(-c2ccc(C)cc2)s1
7.3%	4%	-11	-23%	CN(C)c1ccc(/C=C/C(=O)c2ccc3c(c2)OCCO3)cc1[N+](=O)[O-]
0.2%	5%	-1	17%	CCOC(=O)c1c(C)c(C(=O)N2CCN(c3ccc(F)cc3)CC2)c(C)n1C
1.8%	17%	·	·	Cc1csc(=O)n1CC(=O)OCC(=O)NCc1ccc(F)cc1
0.2%	1%	2	21%	CCO[C@@H]1OC(C(=O)N2CCOCC2)=C[C@H](c2ccc(Br)cc2)[C@H]1CCCO
0.6%	-14%	3	7%	CCCNc1c(NC(C)=O)c(=O)oc2ccccc12
-2.7%	-8%	-1	3%	COC(=O)c1ccc(C(=O)Nc2ccc3nc(-c4cccnc4)[nH]c3c2)cc1
-0.5%	6%	4	-3%	Cc1cccc(-c2nc(CSCC(=O)NCc3cccs3)c(C)o2)c1
3.9%	-2%	-3	?	N#Cc1ccc(/C=C/C(=O)c2ccccc2)cc1
?	?	?	-1%	O=c1cc(CN2CCN(S(=O)(=O)/C=C/c3ccccc3)CC2)c2ccc(O)cc2o1
-4.3%	7%	4	1%	COc1cccc(CNn2cnnc2)c1O
-4.6%	-20%	-4	-7%	COc1ccc(C(=O)N(c2ccc(OC)cc2)S(=O)(=O)c2cccs2)cc1
-0.8%	-2%	·	·	NS(=O)(=O)c1ccc(CCNC(=O)COC(=O)/C=C/c2ccc(OC(F)F)cc2)cc1
-1.5%	13%	1	-15%	c1ccc(-c2noc(-c3cccnc3)n2)nc1
0.7%	16%	·	·	Cc1ccccc1SCC(=O)OCC(=O)N1CC(=O)Nc2ccccc21
0.8%	5%	-6	1%	NNC(=O)c1nc(Cl)c(Cl)c(N)c1Cl
-0.6%	-19%	7	14%	Cc1nc(CNS(=O)(=O)c2ccc3c(c2)CCCC3)cs1
3.4%	-15%	2	-4%	CCOC(=O)c1sc(NC(=O)CSc2nc3c(c(=O)n2-c2ccc(C)cc2)SCC3)c(C(=O)OCC)c1C
1.4%	3%	-2	-10%	COC(=O)c1ccc(NC(=O)CCN2CCN(Cc3ccccc3)CC2)cc1

For reference, some entries already given.
Rango complex inh	Rango dissoc inh	GLA inh pH 4.5	miR-21 reporter	molecule
?	?	?	-1%	O=c1cc(CN2CCN(S(=O)(=O)/C=C/c3ccccc3)CC2)c2ccc(O)cc2o1
-4.3%	7%	4	1%	COc1cccc(CNn2cnnc2)c1O
-4.6%	-20%	-4	-7%	COc1ccc(C(=O)N(c2ccc(OC)cc2)S(=O)(=O)c2cccs2)cc1
-0.8%	-2%	·	·	NS(=O)(=O)c1ccc(CCNC(=O)COC(=O)/C=C/c2ccc(OC(F)F)cc2)cc1
-1.5%	13%	1	-15%	c1ccc(-c2noc(-c3cccnc3)n2)nc1
0.7%	16%	·	·	Cc1ccccc1SCC(=O)OCC(=O)N1CC(=O)Nc2ccccc21
0.8%	5%	-6	1%	NNC(=O)c1nc(Cl)c(Cl)c(N)c1Cl
